BmaI1 – BmaI1 acyl-homoserine lactone synthase inhibition – biochemical, fluorescence intensity, with counterscreen (AID 720554). BmaI1 enzyme assay, fluorescence intensity; stronger effect = higher value; test concentration not given here; a few actives read low; strong numbers were not always called active. inhibition, %. 0.4% of 12,000 active;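 active = both replicates within 2 robust z-scores of the inhibited control and a quiet counterscreen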;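 also: 0% = uninhibited enzyme and 100% = inhibited control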
BmaI1 counterscreen – also measured in BmaI1; calls as there; inhibition, %; measured here: counterscreen; design of the counterscreen not given here;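 first of two replicates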
* = called active by the depositor. This is a subset; count on the stated rates, not on these rows.

O=C1CN(C(=O)COC(=O)c2cc(S(=O)(=O)N3CCOCC3)ccc2Cl)c2ccccc2N1
  BmaI1: 15.5 | BmaI1 counterscreen: 8.5
COC(=O)C1=C(C)NC(C)=C(C(=O)OC)C1C(=O)OCc1nc2cc(C(=O)OC)ccc2c(=O)[nH]1
  BmaI1: 11.5 | BmaI1 counterscreen: -5.5
O=C(/C=C/c1cccc(C(F)(F)F)c1)NCc1ccco1
  BmaI1: 8.5 | BmaI1 counterscreen: -0.5
CC(C(=O)N1CCCc2ccccc21)n1nc(-c2cccs2)oc1=O (stereo not drawn)
  BmaI1: 6.0 | BmaI1 counterscreen: -3.5
S=c1nc[nH]c2nc[nH]c12
  BmaI1: 34.5 | BmaI1 counterscreen: 48.5
Cc1onc(-c2ccccc2)c1C(=O)Oc1ccccc1
  BmaI1: 19.5 | BmaI1 counterscreen: 11.0
Cc1cc(C(=O)CSc2nnc(C(F)(F)F)n2C)c(C)n1Cc1ccco1
  BmaI1: 20.0 | BmaI1 counterscreen: 10.5
Cc1ccc(S(=O)(=O)N2CCN(Cn3nc(C)sc3=S)CC2)c(C)c1
  BmaI1: 50.0 | BmaI1 counterscreen: 37.0
CCNc1nc(-c2cc(C)n(-c3ccc4c(c3)OCCO4)c2C)cs1
  BmaI1: 31.5 | BmaI1 counterscreen: 12.5
COC(=O)C1CCN(CC(O)COCc2ccc(OC)c(OC)c2)CC1 (stereo not drawn)
  BmaI1: 14.0 | BmaI1 counterscreen: 9.0
O=C1CCCCC1Sc1nnc(-c2ccc3c(c2)OCO3)n1-c1ccccc1 (stereo not drawn)
  BmaI1: 24.0 | BmaI1 counterscreen: 4.5
NNC(=O)c1ccc(COc2ccccc2)o1
  BmaI1: -86.5 | BmaI1 counterscreen: -84.5
Cc1nc(SCC(=O)N(c2ccccc2)C2CCS(=O)(=O)C2)n(CC(C)C)c1C (stereo not drawn)
  BmaI1: 15.5 | BmaI1 counterscreen: 4.0
Cc1cccc(-n2nnnc2SCCCC(=O)c2ccccc2)c1
  BmaI1: -5.0 | BmaI1 counterscreen: -10.0
CC[C@H](C)C(=O)O[C@H]1C[C@H](O)C=C2C=C[C@H](C)[C@H](CC[C@@H](O)C[C@@H](O)CC(=O)O)[C@H]21
  BmaI1: 5.0 | BmaI1 counterscreen: 7.0
COC(=O)c1ccccc1NC(=O)COc1nc2ccccc2nc1N1CCOCC1
  BmaI1: 2.0 | BmaI1 counterscreen: 3.0
CN(Cc1cccnc1)C(=O)CNS(=O)(=O)c1ccccc1C#N
  BmaI1: 6.0 | BmaI1 counterscreen: 8.0
COCCOC(=O)C1=C(C)NC(C)=C(C(=O)OC(C)C)C1c1cccc([N+](=O)[O-])c1 (stereo not drawn)
  BmaI1: 14.0 | BmaI1 counterscreen: 21.5
Cc1ccc(NC(=O)COC(=O)CC2SC(N3CCCC3)=NC2=O)cc1 (stereo not drawn)
  BmaI1: 9.0 | BmaI1 counterscreen: 13.5
O=C(O)C(C(=O)C1CC1c1ccccc1)=C1SCCS1 (stereo not drawn)
  BmaI1: 12.5 | BmaI1 counterscreen: 6.5
O=C1C=C(NNC(=O)COc2cccc(F)c2)CCC1
  BmaI1: 7.5 | BmaI1 counterscreen: 4.0
O/N=C/c1c(F)c(F)c(F)c(F)c1F
  BmaI1: 5.0 | BmaI1 counterscreen: 8.5
O=C(Cc1n[nH]c(=O)c2ccccc12)Nc1nc(CN2CCOCC2)cs1
  BmaI1: 10.5 | BmaI1 counterscreen: 4.5
COc1cc(/C=N/n2c(=O)[nH]c3ccccc3c2=O)ccc1OCC(=O)O
  BmaI1: 29.0 | BmaI1 counterscreen: -1.0
O=C(CSc1nnc(-c2ccc3c(c2)OCO3)n1-c1ccccc1)NC1CCCC1
  BmaI1: 22.5 | BmaI1 counterscreen: -3.0

Cc1noc(C)c1COC(=O)Cc1c[nH]c2ccccc12
  BmaI1: 22.0 | BmaI1 counterscreen: 18.0
CCCOc1ccc(C(=O)N(CC(N)=O)C(C)C)cc1
  BmaI1: 21.0 | BmaI1 counterscreen: 6.0
O=C(CNc1ccc(C(F)(F)F)cc1)N1CCc2ccccc21
  BmaI1: 20.5 | BmaI1 counterscreen: 8.0
c1ccc(-c2nc(CSc3nnc4n3CCCCC4)cs2)cc1
  BmaI1: 14.0 | BmaI1 counterscreen: 8.0
CN(C)S(=O)(=O)c1cccc(C(=O)OCC(=O)N2N=C3/C(=C/c4ccco4)CCCC3C2c2ccco2)c1 (stereo not drawn)
  BmaI1: 16.5 | BmaI1 counterscreen: 15.0
O=C(CCn1[nH]c(=O)ccc1=O)Nc1nc(SCc2ccc(Cl)cc2)n[nH]1
  BmaI1: 13.0 | BmaI1 counterscreen: 13.5
CCn1nc(C(=O)OCC(=O)Nc2ccccc2)c2ccccc2c1=O
  BmaI1: 16.0 | BmaI1 counterscreen: 16.5
CCOC(=O)Nc1ccc2c(CNCCCN3CCOCC3)cc(=O)oc2c1
  BmaI1: 1.5 | BmaI1 counterscreen: -7.5
Cc1nc2ccc(NC(=O)C3CCCC3)cc2s1
  BmaI1: 14.0 | BmaI1 counterscreen: 12.5
CC1CCCN(C(=O)C(C)Nc2cc(Cl)ccc2N2CCOCC2)C1 (stereo not drawn)
  BmaI1: 18.5 | BmaI1 counterscreen: 3.0
Cc1ccc(/C=N/NC(=S)NC2CCCCC2)o1
  BmaI1: -89.0 | BmaI1 counterscreen: -36.0
COC(=O)C1CN(CC(=O)Nc2cccnc2Cl)CCS1 (stereo not drawn)
  BmaI1: 7.5 | BmaI1 counterscreen: 2.5
Cc1nn(CC(C)C)c2sc(C(=O)NC3CC(C)(C)NC(C)(C)C3)cc12
  BmaI1: 19.5 | BmaI1 counterscreen: 8.5
Brc1ccc(-c2csc(/N=C/N3CCCC3)n2)cc1
  BmaI1: 12.5 | BmaI1 counterscreen: 7.0
CC(=O)NN=C1CCC(c2ccccc2)CC1 (stereo not drawn)
  BmaI1: -107.0 | BmaI1 counterscreen: -71.5
COc1ccc(OCCSc2nc(N)cc(N)n2)cc1
  BmaI1: 2.5 | BmaI1 counterscreen: 16.0
CCn1cc(C(=O)O)c(=O)c2cc(F)c(N3CCN(C)CC3)cc21
  BmaI1: -11.5 | BmaI1 counterscreen: -33.5
CC(=O)NCc1ccc(C(=O)COC(=O)Cc2n[nH]c(=O)c3ccccc23)o1
  BmaI1: 8.5 | BmaI1 counterscreen: -5.0
CN(C(=O)COC(=O)c1cc(S(=O)(=O)N2CCCCC2)ccc1N1CCOCC1)C1CCS(=O)(=O)C1 (stereo not drawn)
  BmaI1: 0.0 | BmaI1 counterscreen: 3.0
CC(C)(C)NC(=O)CN1CCCNCC1
  BmaI1: 15.0 | BmaI1 counterscreen: 8.0
CC(=O)N1CCC(N)=N1
  BmaI1: 17.5 | BmaI1 counterscreen: 1.5
CCNc1ccc(P(=S)(N(C)C)N(C)C)cc1
  BmaI1: 16.5 | BmaI1 counterscreen: 6.0
COc1ccc(-c2nc3c(cc2C#N)c(=O)n(C)c(=O)n3CC(C)C)cc1
  BmaI1: 7.0 | BmaI1 counterscreen: 1.5
Cc1ccc(S(=O)(=O)c2ccc(-n3ncc(C#N)c3N)cc2)cc1
  BmaI1: 15.0 | BmaI1 counterscreen: 13.0
COC(=O)C1CCN(C(=O)Cn2c(=O)cnc3ccccc32)CC1
  BmaI1: -1.0 | BmaI1 counterscreen: -1.5

CN(Cc1ccccc1)C(=O)COC(=O)c1ccc(S(=O)(=O)N(C)C)cc1
  BmaI1: 13.0 | BmaI1 counterscreen: 12.0
N#CCSc1nc2cc(Cl)ccc2c(=O)n1Cc1ccccc1
  BmaI1: 7.0 | BmaI1 counterscreen: 2.0
O=C1CN(C(=O)CSc2nnc(Cc3cccs3)n2CCc2ccccc2)c2ccccc2N1
  BmaI1: 20.5 | BmaI1 counterscreen: 8.5
O=C(c1cnoc1)c1ccccc1O
  BmaI1: -3.5 | BmaI1 counterscreen: -7.5
Cc1ccc(Cl)c(Nc2ccccc2C(=O)O)c1Cl
  BmaI1: 7.0 | BmaI1 counterscreen: 0.5
CC1Sc2ccc(C(=O)N(C)Cc3cccnc3)cc2NC1=O (stereo not drawn)
  BmaI1: 13.0 | BmaI1 counterscreen: -3.5
CC(C)(C)NC(=O)CN1CCN(C(=S)Nc2ccccc2F)CC1
  BmaI1: 7.0 | BmaI1 counterscreen: 8.0
CN(C)S(=O)(=O)c1ccc(C(=O)OCC(=O)C(C)(C)C)cc1
  BmaI1: 5.0 | BmaI1 counterscreen: 4.5
Cc1nc(CC(=O)OCc2nnc(-c3c(-c4ccccc4)noc3C)o2)cs1
  BmaI1: 20.5 | BmaI1 counterscreen: 3.5
Cc1noc(C)c1CN1CCC(c2nc3ccccc3s2)CC1
  BmaI1: 16.5 | BmaI1 counterscreen: 6.5
O=C(COc1ccc(Nc2ccccc2)cc1)OCC(=O)N1CCCCC1
  BmaI1: 74.5 | BmaI1 counterscreen: 58.5
O=C(Nc1nc2ccccc2[nH]1)Nc1ccccc1F
  BmaI1: 31.0 | BmaI1 counterscreen: 83.5
c1ccc2sc(-c3ccc4c(c3)OCCO4)nc2c1
  BmaI1: 4.5 | BmaI1 counterscreen: -1.0
O=C(CCc1c[nH]c2ccccc12)N1CCN(c2ccccc2)CC1
  BmaI1: 5.0 | BmaI1 counterscreen: 1.0
CSc1ccccc1NC(=O)CN(C)C(=O)COc1ccc(-c2nnco2)cc1
  BmaI1: 8.5 | BmaI1 counterscreen: -7.0
CCn1c(SCC(=O)OCC(=O)c2ccc(Br)s2)nnc1-c1cccs1
  BmaI1: 7.5 | BmaI1 counterscreen: 10.5
O=C(c1cncn1-c1ccccc1)N(Cc1ccco1)Cc1cccs1
  BmaI1: 11.5 | BmaI1 counterscreen: 13.0
O=C(Cn1cnnn1)NC1CCCc2ccccc21 (stereo not drawn)
  BmaI1: 11.0 | BmaI1 counterscreen: 7.5

Reprinted from above for reference:
Cc1ccc(S(=O)(=O)c2ccc(-n3ncc(C#N)c3N)cc2)cc1
  BmaI1: 15.0 | BmaI1 counterscreen: 13.0
COC(=O)C1CCN(C(=O)Cn2c(=O)cnc3ccccc32)CC1
  BmaI1: -1.0 | BmaI1 counterscreen: -1.5
CN(Cc1ccccc1)C(=O)COC(=O)c1ccc(S(=O)(=O)N(C)C)cc1
  BmaI1: 13.0 | BmaI1 counterscreen: 12.0
N#CCSc1nc2cc(Cl)ccc2c(=O)n1Cc1ccccc1
  BmaI1: 7.0 | BmaI1 counterscreen: 2.0
O=C1CN(C(=O)CSc2nnc(Cc3cccs3)n2CCc2ccccc2)c2ccccc2N1
  BmaI1: 20.5 | BmaI1 counterscreen: 8.5
O=C(c1cnoc1)c1ccccc1O
  BmaI1: -3.5 | BmaI1 counterscreen: -7.5
Cc1ccc(Cl)c(Nc2ccccc2C(=O)O)c1Cl
  BmaI1: 7.0 | BmaI1 counterscreen: 0.5
CC1Sc2ccc(C(=O)N(C)Cc3cccnc3)cc2NC1=O (stereo not drawn)
  BmaI1: 13.0 | BmaI1 counterscreen: -3.5
CC(C)(C)NC(=O)CN1CCN(C(=S)Nc2ccccc2F)CC1
  BmaI1: 7.0 | BmaI1 counterscreen: 8.0
CN(C)S(=O)(=O)c1ccc(C(=O)OCC(=O)C(C)(C)C)cc1
  BmaI1: 5.0 | BmaI1 counterscreen: 4.5
Cc1nc(CC(=O)OCc2nnc(-c3c(-c4ccccc4)noc3C)o2)cs1
  BmaI1: 20.5 | BmaI1 counterscreen: 3.5
Cc1noc(C)c1CN1CCC(c2nc3ccccc3s2)CC1
  BmaI1: 16.5 | BmaI1 counterscreen: 6.5
O=C(COc1ccc(Nc2ccccc2)cc1)OCC(=O)N1CCCCC1
  BmaI1: 74.5 | BmaI1 counterscreen: 58.5
O=C(Nc1nc2ccccc2[nH]1)Nc1ccccc1F
  BmaI1: 31.0 | BmaI1 counterscreen: 83.5
c1ccc2sc(-c3ccc4c(c3)OCCO4)nc2c1
  BmaI1: 4.5 | BmaI1 counterscreen: -1.0
O=C(CCc1c[nH]c2ccccc12)N1CCN(c2ccccc2)CC1
  BmaI1: 5.0 | BmaI1 counterscreen: 1.0
CSc1ccccc1NC(=O)CN(C)C(=O)COc1ccc(-c2nnco2)cc1
  BmaI1: 8.5 | BmaI1 counterscreen: -7.0
CCn1c(SCC(=O)OCC(=O)c2ccc(Br)s2)nnc1-c1cccs1
  BmaI1: 7.5 | BmaI1 counterscreen: 10.5
O=C(c1cncn1-c1ccccc1)N(Cc1ccco1)Cc1cccs1
  BmaI1: 11.5 | BmaI1 counterscreen: 13.0
O=C(Cn1cnnn1)NC1CCCc2ccccc21 (stereo not drawn)
  BmaI1: 11.0 | BmaI1 counterscreen: 7.5

Assay outcomes: PubChem, ICCB-Longwood Screening Facility, Harvard Medical School
